supercomplex z = modulators of mitochondrial supercomplex assembly, cell-based, luminescence, Hoechst nuclei count (AID 1645838) | z-score at 11 µM unless noted | actives 5% (n = 2,000) | Cells, luminescence/Hoechst cell count ratio, supercomplex reporter; hits give high values;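 active = mean z-score of two plates above 1.96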;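 note: control cybrid cells; higher means more mitochondrial supercomplex formation; U2OS-based cells read after two days; 0 = mean of sample wells on the plate; doses worked out from stocks diluted about 900-fold with the highest of each compound shown; many of its hits are not listed in these tables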
supercomplex z cell count = recorded beside supercomplex z, whose call it bears; cell count; measured here: cell number, Hoechst nuclei count;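 nuclei per well as mean of two plates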
Active calls of the source: *; i = inactive; . = not tested or not shown. Some of the compounds tested (hit frequency here may not be typical).

SMILES	supercomplex z	supercomplex z cell count
Cc1nc(C(=O)N2CCCC2Cc2nnc(-c3ccccc3)o2)c(-c2ccccc2F)s1 (stereo not given)	-0.37	5738
CCCCC(F)(F)[C@@]1(O)CCC2C(CC(=O)C2CCCCCCC(=O)O)O1 (stereo not given in full)	0.21	6817
Cc1c(Cc2ccc3ccccc3n2)c2cc(F)ccc2n1CC(=O)O	-0.18	5704
CC(C)c1cnn2c(NCc3ccccc3)cc(NCCCCCCN)nc12	-0.3	5040
C=CCN(C)CCCCCCOc1ccc(C(=O)c2ccc(Br)cc2)c(F)c1	-0.043	4635
CC(C)C(CO)Nc1nc(Nc2ccc(C(=O)O)c(Cl)c2)c2ncn(C(C)C)c2n1 (stereo not given)	0.078	4970
CCC(C)SSc1ncc[nH]1 (stereo not given)	i	.
Cc1nc2c([nH]1)CCN(C(=O)c1ccc(NC(=O)c3ccccc3-c3ccccc3)cc1)c1ccccc1-2	-0.95	4085
NCCC(O)(P(=O)(O)O)P(=O)(O)O	-0.46	5188
COc1cc(OC)cc(C(=O)Nc2ccc(Cl)c(-c3nc4ccc(N(C)C)cc4[nH]3)c2)c1	-0.28	7002
CC(C)(C)C(O)C=Cc1ccc2c(c1)OCO2 (stereo not given)	0.14	5256
Cc1c(-c2ccc(-c3ccccc3F)cc2)nc2ccc(F)cc2c1C(=O)O	i	.
OCCOc1ccc(C(=C(CCCl)c2ccccc2)c2ccccc2)cc1	-0.6	5031
COc1ccc(CCOC2CCCCC2N2CCC(O)C2)cc1OC (stereo not given)	-0.65	5070
O=C(O)c1cc(C(=O)O)c(C(=O)N(Cc2cccc(Oc3ccccc3)c2)C2CCCc3ccccc32)cc1C(=O)O (stereo not given)	-0.41	6566
CCOc1ccc(S(=O)(=O)N(CC(=O)N=Nc2c(O)[nH]c3ccccc23)c2ccccc2)cc1	i	.
CC[N+](CC)(CC)CC(=O)Nc1c(C)cccc1C	0.19	6064
c1ccc(-c2[nH]ncc2-c2ccnc3ccccc23)nc1	0.42	6270
Cc1ccc(C(=O)Nc2ccc(Oc3cc4cnn(C)c4cc3-c3cn[nH]c3)c(F)c2)c(=O)n1-c1ccc(F)cc1	-2.5	6388
COc1ccc2c(c1)n(CCN)c(=O)n2C(=O)C1CC(C)CCC1C(C)C (stereo not given)	-0.3	3293
CCCNC(=O)C1OC1C(=O)N[C@@H](C(=O)N1CCCC1C(=O)O)C(C)CC (stereo not given in full)	-0.19	5370
O=C(NC(=O)c1c(F)cccc1Cl)NC1c2ccccc2-c2ccccc21	-0.28	5522
OB(O)c1ccccc1	-0.35	5451
COc1cc(=C2C=c3ccccc3=N2)[nH]c1=Cc1[nH]c(C)cc1C	1.1	1558
N#Cc1c(-c2ccccc2)cc(-c2cc(Br)ccc2O)[nH]c1=O	-0.47	6246
CC(C)C(=O)Nc1ncc(-c2cc(C(F)F)nn2-c2c(Cl)cccc2Cl)s1	-0.086	5170
CS(=O)(=O)CCNCc1ccc(-c2ccc3ncnc(Nc4ccc(OCc5cccc(F)c5)c(Cl)c4)c3c2)o1	0.35	1622
Cc1cccc(CC(=O)N2CCc3c2ccc(-c2cn(C)c4ncnc(N)c24)c3F)n1	-0.062	5523
CC1CNCCCN1S(=O)(=O)c1cccc2cncc(F)c12 (stereo not given)	-0.34	6400
O=C(NCc1ccc(Cl)cc1Cl)C1CC(=O)N(Cc2ccccc2)C1 (stereo not given)	-0.78	5112
CC(C)c1ccccc1OC(=O)NCCc1ccc2ccccc2c1	-0.37	5912
COc1ccc(CNC(=O)c2sc3nc(C)cc(C)c3c2N)cc1	-0.21	5480
NC(N)=NN=Cc1ccc(Cl)c(Cl)c1	-0.66	4256
Cc1cn(-c2cc(NC(=O)c3ccc(C)c(Nc4nccc(-c5cccnc5)n4)c3)cc(C(F)(F)F)c2)cn1	1.6	3264
C=C1C(=CC=C2CCC[C@]3(C)C(C(C)C=CC(O)C4CC4)CC[C@@H]23)CC(O)CC1O (stereo not given in full)	-0.64	5260
CCN(CC)c1ccc(C=NNC(=O)c2ccc(O)cc2)cc1	2.2*	3356*
c1ccc(C(NCCNC(c2ccccc2)c2ccccc2)c2ccccc2)cc1	-0.15	3636
NS(=O)(=O)Cc1noc2ccccc12	0.34	6092
CCOC(=O)NC1CCC2C(C1)CC1C(=O)OC(C)C1C2C=Cc1ccc(-c2cccc(F)c2)cn1 (stereo not given)	-1.1	5581
Cc1c(Cc2ccccc2)c(=O)oc2cc(O)ccc12	i	.
Cc1cccc(Nc2ccncc2S(=O)(=O)NC(=O)NC(C)C)c1	-0.0052	5190
O=C1CN(N=Cc2ccc(-c3ccc([N+](=O)[O-])cc3)o2)C(=O)N1	-0.34	4012
COc1ccc2c(c1)c(CC(=O)O)c(C)n2C(=O)c1ccc(Cl)cc1	-0.25	5350
COc1ccccc1Oc1c(NS(=O)(=O)c2ccc(C)cn2)nc(-c2ccncc2)nc1OC	0.019	7549
Ic1cccc(CSc2nnc(-c3ccncc3)o2)c1	-0.83	4358
CC(C)OC(=O)N1CCC(Oc2ncnc3c2cnn3-c2ccc(S(C)(=O)=O)cc2F)CC1	-0.53	7200
Cc1ccc(NC(=O)c2cccc(N(C)C)c2)cc1NC(=O)c1ccc(O)cc1	-0.026	5168
O=C1NCCc2[nH]c(-c3ccncc3)cc21	i	.
O=C1COc2c(CCNCCN(C(=O)CCNCCc3ccc(Cl)c(Cl)c3)C3CCCCC3)ccc(O)c2N1	-0.51	4735
CCC(CO)Nc1nc(NCc2ccccc2)c2ncn(C(C)C)c2n1 (stereo not given)	0.14	3210

Reformatted with values under each structure: part of the list above
Each structure is followed by: supercomplex z | supercomplex z cell count
> CC(C)C(CO)Nc1nc(Nc2ccc(C(=O)O)c(Cl)c2)c2ncn(C(C)C)c2n1 (stereo not given)
 : 0.078 | 4970
> Cc1cccc(CC(=O)N2CCc3c2ccc(-c2cn(C)c4ncnc(N)c24)c3F)n1
 : -0.062 | 5523
> CC(C)C(=O)Nc1ncc(-c2cc(C(F)F)nn2-c2c(Cl)cccc2Cl)s1
 : -0.086 | 5170

Next section:
SMILES	supercomplex z	supercomplex z cell count
Cn1c2cc(S(C)=O)sc2c2cnn(Cc3cccc(N)c3)c(=O)c21 (stereo not given)	-0.34	6597
O=C(CSc1nc2ccccc2s1)N1CCCc2ccccc21	-0.14	4416
Cc1cc(SCc2sc(-c3ccc(C(F)(F)F)cc3)nc2C)ccc1OCC(=O)O	0.035	4750
Fc1cc(-c2cccc3ncc(-c4cnn(C5CCNCC5)c4)nc23)cc(F)c1CN1CCOCC1	i	.
CN(CC(=O)N(Cc1ccc(C2CCCCC2)cc1)c1ccc(C(=O)O)cc1)S(=O)(=O)c1c(F)c(F)c(F)c(F)c1F	i	.
O=C(NCC1(c2nc(-c3ccccc3)cs2)CCOCC1)c1cccc(-c2noc(C(F)(F)F)n2)c1	0.16	3976
CCC(Nc1ncnc2nc[nH]c12)c1nc2cccc(F)c2c(=O)n1-c1ccccc1 (stereo not given)	-0.041	4724
c1cc2c(cc1C1CCCCC1)c1c3n2CCNC3CCC1 (stereo not given)	3.3*	4316*
COC(=O)N1C(=O)[C@](c2ccccc2)(C2CCCC2)N1C(=O)OC	0.35	4393
CNC(=O)Nc1ccc(-c2nc(N3CC4CCC(C3)O4)c3cnn(C4CCC5(CC4)OCCO5)c3n2)cc1	i	.
CC(C(=O)O)c1ccc2c(c1)[nH]c1ccc(Cl)cc12 (stereo not given)	-0.27	5924
Cc1ccc(S(=O)(=O)NC(=O)NN2CC3CCCC3C2)cc1 (stereo not given)	-0.018	4210
CC(=O)O[C@]1(C(C)=O)CC[C@@H]2[C@H]3CCC4=CC(=O)CCC4=C3C(c3ccc(N(C)C)cc3)C[C@@]21C (stereo not given in full)	-0.31	4725
C[C@H](OC[C@@]1(c2ccccc2)CC[C@]2(CCC(=O)N2)CN1)c1cc(C(F)(F)F)cc(C(F)(F)F)c1	-0.39	4758
NC(=O)Nc1cc(-c2cccc(F)c2)sc1C(=O)NC1CCCNC1 (stereo not given)	i	.
CN(CCC(Oc1ccc(-c2ccccc2)cc1)c1ccc(F)cc1)CC(=O)O (stereo not given)	-0.42	6728
Cc1cc(Nc2cc(CN3CCOCC3)c3nc(C)c(Cc4ccc(Cl)cc4F)n3n2)n[nH]1	i	.
CCN1CCN(Cc2ccc(NC(=O)c3ccc(C)c(C=Cc4cnc5[nH]ccc5c4OC)c3)cc2C(F)(F)F)CC1	i	.
NCCCCC(NC(=O)C(Cc1cc(Br)c(O)c(Br)c1)NC(=O)N1CCC(N2Cc3ccccc3NC2=O)CC1)C(=O)N1CCN(c2ccncc2)CC1 (stereo not given)	-0.54	4651
CC(C)(C)NC(=O)C1CC[C@H]2[C@@H]3CC[C@@H]4NC(=O)C=C[C@]4(C)[C@H]3CC[C@]12C (stereo not given in full)	-0.8	4434

A stretch from further up, as a working copy:
SMILES	supercomplex z	supercomplex z cell count
CC(=O)O[C@]1(C(C)=O)CC[C@@H]2[C@H]3CCC4=CC(=O)CCC4=C3C(c3ccc(N(C)C)cc3)C[C@@]21C (stereo not given in full)	-0.31	4725
C[C@H](OC[C@@]1(c2ccccc2)CC[C@]2(CCC(=O)N2)CN1)c1cc(C(F)(F)F)cc(C(F)(F)F)c1	-0.39	4758
NC(=O)Nc1cc(-c2cccc(F)c2)sc1C(=O)NC1CCCNC1 (stereo not given)	i	.
CN(CCC(Oc1ccc(-c2ccccc2)cc1)c1ccc(F)cc1)CC(=O)O (stereo not given)	-0.42	6728
Cc1cc(Nc2cc(CN3CCOCC3)c3nc(C)c(Cc4ccc(Cl)cc4F)n3n2)n[nH]1	i	.

Gathered by group: the compounds so far containing a CF3 group
SMILES	supercomplex z	supercomplex z cell count
Cc1cn(-c2cc(NC(=O)c3ccc(C)c(Nc4nccc(-c5cccnc5)n4)c3)cc(C(F)(F)F)c2)cn1	1.6	3264
Cc1cc(SCc2sc(-c3ccc(C(F)(F)F)cc3)nc2C)ccc1OCC(=O)O	0.035	4750
O=C(NCC1(c2nc(-c3ccccc3)cs2)CCOCC1)c1cccc(-c2noc(C(F)(F)F)n2)c1	0.16	3976
C[C@H](OC[C@@]1(c2ccccc2)CC[C@]2(CCC(=O)N2)CN1)c1cc(C(F)(F)F)cc(C(F)(F)F)c1	-0.39	4758
CCN1CCN(Cc2ccc(NC(=O)c3ccc(C)c(C=Cc4cnc5[nH]ccc5c4OC)c3)cc2C(F)(F)F)CC1	i	.

(cont.)
SMILES	supercomplex z	supercomplex z cell count
CON(C)C(=O)N1N=C(c2cc(F)ccc2F)S[C@@]1(CCCN)c1ccccc1	i	.
Cc1ccc(-n2[nH]c(C)c(N=Nc3cccc(-c4cccc(C(=O)O)c4)c3O)c2=O)cc1C	-0.065	4522
NC(CSCCB(O)O)C(=O)O (stereo not given)	-0.29	6060
O=c1ccn(C2OC(COP(=O)(O)OP(=O)(O)OP(=O)(O)O)C(O)C2O)c(=O)[nH]1 (stereo not given)	-1.1	6512
CSCCC(NC(=O)C(CC(C)C)NC(=O)CNC(=O)C(NC(=O)C(Cc1ccccc1)NC(=O)C(CO)NC(=O)C(CC(=O)O)NC(=O)[C@H](NC(=O)C(CCCCN)NC(=O)C(N)Cc1cnc[nH]1)C(C)O)C(C)C)C(N)=O (stereo not given in full)	-0.39	6038
COc1cc(C(C)C)c2c(c1)S(=O)(=O)N(COc1cc(=O)n3cccc(OCCN4CCCCC4)c3n1)C2=O	-0.64	5778
CC1CC[C@H]2C(C)C(O)O[C@H]3O[C@@]4(C)CC[C@@H]1[C@]32OO4 (stereo not given in full)	-1	2618
CCCCCCCN(CC)CCCC(O)c1ccc(NS(C)(=O)=O)cc1 (stereo not given)	-0.88	7098
COC1C=CO[C@@]2(C)Oc3c(C)c(O)c4c(O)c(c5c(nc6cc(C)ccn65)c4c3C2=O)NC(=O)C(C)=CC=CC(C)C(O)C(C)C(O)C(C)C(OC(C)=O)C1C (stereo not given in full)	-0.39	4746
NC(Cc1cc(I)c(Oc2ccc(O)c(I)c2)c(I)c1)C(=O)O (stereo not given)	-0.83	5857
CCCNC1CCc2nc(N)sc2C1 (stereo not given)	-0.17	6378
COC(=O)C(CCSC)NC(=O)c1ccc(NCC(N)CS)cc1-c1ccccc1 (stereo not given)	-1	5782
CC(C)n1nnc2cc(C(=O)O)ccc21	-0.22	6368
CCCCOc1nc(N)c2c(n1)N(Cc1cccc(CN3CCCC3)c1)CC(=O)N2	1.1	4890

Compound activity: PubChem BioAssay, ICCB-Longwood Screening Facility, Harvard Medical School
